VDR inh: vitamin D3 receptor (human) inhibition | P11473 | VDR-SRC2-3 peptide fluorescence polarization, 2 h | Potency, µM, for inactives: max response, negative = inhibition, most hits filed as inhibitors | actives 0.93% (n = 400,000) | AID 504847; active means well fitted inhibition curve with a large enough effect; inconclusive means small, poorly fitted or top-dose-only effect, or another doubt; inactive means no such curve, though single readings can be large or run the other way; further: series mostly up to about 120 µM
Target sequence (P11473 whole entry, looked up): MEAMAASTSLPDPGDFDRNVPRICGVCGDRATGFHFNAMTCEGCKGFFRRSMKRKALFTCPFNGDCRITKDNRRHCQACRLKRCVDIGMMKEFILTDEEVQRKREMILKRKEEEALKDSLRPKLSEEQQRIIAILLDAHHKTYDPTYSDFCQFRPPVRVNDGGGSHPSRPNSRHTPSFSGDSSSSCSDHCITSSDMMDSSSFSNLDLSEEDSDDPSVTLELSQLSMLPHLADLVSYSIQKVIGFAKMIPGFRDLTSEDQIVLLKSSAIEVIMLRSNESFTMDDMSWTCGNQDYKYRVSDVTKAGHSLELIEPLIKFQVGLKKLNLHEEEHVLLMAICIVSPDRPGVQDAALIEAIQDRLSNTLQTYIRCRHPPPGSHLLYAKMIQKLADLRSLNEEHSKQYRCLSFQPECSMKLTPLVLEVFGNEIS
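VDR–SRC2-3 interaction, FP format. Cmpds 23 nl via pintool, brief spin, 2 h ambient incubation.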
An asterisk follows results filed as active; ? = inconclusive; & = joins results of further samples. On the % scale 0 is the no-effect control and ±100 the full control effect; potency means the concentration at half of the fitted maximal effect.

VDR inh | canonical_smiles
5% | O=C(CCc1ccccc1)N1N=C(c2ccncc2)CC1(O)C(F)(F)F (configuration not stated)
5% | C#CCOCCOCCOCCNc1nc(N2CCN(C(=O)[C@H](CCC(=O)O)n3cc(C(N)CC(C)C)nn3)CC2)nc(N2CCN(C(=O)[C@H](Cc3cc4ccccc4[nH]3)n3cc(C(N)CC(C)C)nn3)CC2)n1 (some centres not stated)
-5% | O=C(COc1ccc(Cl)cc1)NCc1nnc(SCC(=O)NC2CCCC2)o1
5% | COc1cccc(CN(C)CC(=O)Nc2ccccc2C(=O)NC2CC2)c1
-14% | O=C1NC[C@H](CC2CCCCC2)N(CCc2cccc(F)c2)C1=O
-2% | COc1ccc(Cl)cc1NC(=O)c1nnn(CC(=O)Nc2ccc(C)c(C)c2)c1N
18% | Cc1nn(-c2ccccc2)c2nc(C3CC3)cc(C(=O)Nc3cccc(F)c3)c12
16% | CC(C)CCNC(=O)CCS(=O)(=O)c1cccc2nonc12
8% | CCOc1ccccc1Nc1nnc(SCC(=O)Nc2nc(-c3ccc(OC)cc3)cs2)s1
-19% | CCC(=O)Nc1ccc(C(=O)N2CCN(C(=O)c3ccco3)CC2)cc1
? | O=C(Nc1cccc(F)c1)Nc1ccnn1C1CCN(C(=O)c2ccccn2)CC1
-15% | O=S(=O)(CC(CN1CCOCC1)N1CCOCC1)c1ccccc1 (configuration not stated)
-6% | O=CNC(=O)c1ccccc1C(=O)O
1% | O=C(C1CCCN(S(=O)(=O)c2ccc(F)cc2)C1)N1CCCCCC1 (configuration not stated)
? | Cc1ccc(S(=O)(=O)N2CCC(C(=O)Nc3ccccc3N3CCCCC3)CC2)cc1C
-5% | CCCCc1cc(=O)oc2cc(C)cc(OCC(=O)N3CCC(C(=O)O)CC3)c12
-21% | CN(C)C(=S)SCC(=O)NCc1ccc(F)cc1
-6% | O=Cc1ccc(-c2ccc(Cl)cc2Cl)[nH]1
2% | COc1cc(C(=O)Oc2ccc3c(c2)OCC3=O)cc(OC)c1OC
9% | CCNc1nc2ccccc2[nH]1
-13% | CCC(C(=O)n1cccc1C#N)c1ccccc1C (configuration not stated)
9% | FC(F)(F)c1cccc(NC(=S)N2CCN(c3ccccc3)CC2)c1
5% | CC1=NN(C(=O)c2ccccc2Cl)C(O)(c2ccccc2)C1 (configuration not stated)
-8% | CCN(CC(=O)Nc1ccc(NC(C)=O)cc1)C(=O)C1CCCC1
12% | CC(OC(=O)c1cc(=O)[nH]c2ccccc12)C(=O)Nc1ccc(Cl)cn1 (configuration not stated)
? | Cc1cc(C(=O)Nc2ccc(S(=O)(=O)Nc3onc(C)c3C)cc2)c(C)o1
18% | CCOc1ccc(CCN2C(=O)c3cccnc3C2=O)cc1OCC
0% | C[C@H](NC(=O)c1nc[nH]c1C(=O)N1CCNCC1)C(=O)OC(C)(C)C
3% | Cn1c(=O)c2c(nc(N/N=C/c3cccs3)n2Cc2ccc(Br)cc2)n(C)c1=O
-24% | CC(C)NC(=O)CSc1nc2[nH]ncc2c(=O)[nH]1

Some of these compounds in order of their number in VDR inh, low to high.
| Structure | VDR inh |
| --- | --- |
| CN(C)C(=S)SCC(=O)NCc1ccc(F)cc1 | -21% |
| CCCCc1cc(=O)oc2cc(C)cc(OCC(=O)N3CCC(C(=O)O)CC3)c12 | -5% |
| C[C@H](NC(=O)c1nc[nH]c1C(=O)N1CCNCC1)C(=O)OC(C)(C)C | 0% |
| O=C(C1CCCN(S(=O)(=O)c2ccc(F)cc2)C1)N1CCCCCC1 (configuration not stated) | 1% |
| COc1cc(C(=O)Oc2ccc3c(c2)OCC3=O)cc(OC)c1OC | 2% |
| C#CCOCCOCCOCCNc1nc(N2CCN(C(=O)[C@H](CCC(=O)O)n3cc(C(N)CC(C)C)nn3)CC2)nc(N2CCN(C(=O)[C@H](Cc3cc4ccccc4[nH]3)n3cc(C(N)CC(C)C)nn3)CC2)n1 (some centres not stated) | 5% |
| CCOc1ccc(CCN2C(=O)c3cccnc3C2=O)cc1OCC | 18% |

Arranged by heavy-atom count (smallest number first): 3 of the compounds above
VDR inh | canonical_smiles
5% | COc1cccc(CN(C)CC(=O)Nc2ccccc2C(=O)NC2CC2)c1
-5% | CCCCc1cc(=O)oc2cc(C)cc(OCC(=O)N3CCC(C(=O)O)CC3)c12
? | Cc1ccc(S(=O)(=O)N2CCC(C(=O)Nc3ccccc3N3CCCCC3)CC2)cc1C

The listing continues:
VDR inh | canonical_smiles
-2% | CCOc1ccc(CCNC(=O)Cn2ncc3c([nH]c4ccccc43)c2=O)cc1OCC
-6% | O=C(CSCCO)Nc1ccccc1
4% | CCCCCNC(=O)c1ccc2c(=O)n(CC3CCCO3)c(=S)[nH]c2c1 (configuration not stated)
15% | COc1cccc(CC(=O)OCC(=O)N(C)CC(=O)Nc2ccc(F)cc2)c1
-9% | O=C(c1ccc(NS(=O)(=O)c2ccccc2)cc1)N1CCOCC1
0% | COc1ccc(CCn2c(N3CCN(C)CC3)nc3c2c(=O)[nH]c(=O)n3C)cc1
6% | O=C(NC1CCCc2ccccc21)c1cccc(Br)c1 (configuration not stated)
? | C[C@H](CO)N1C[C@H](C)[C@H](CN(C)C(=O)Nc2ccc(C(F)(F)F)cc2)Oc2c(NC(=O)c3ccncc3)cccc2C1=O
-20% | COc1cccc(NC(=S)N2CCC(C(=O)c3ccc(F)cc3)CC2)c1
4% | Cc1ccc(S(=O)(=O)N2N=C3CCCCC3C2(O)C(F)(F)F)cc1 (configuration not stated)
10% | CN(C)c1oc(-c2ccco2)nc1C#N
2% | COc1ccc(C(N)=O)cc1NC(=O)CC(O)(C(F)(F)F)C(F)(F)F
-11% | COc1ccc(C2=NOC(COC(=O)c3ccc4ccccc4n3)C2)cc1 (configuration not stated)
1% | C#CCSc1nnc(-c2ccccc2)c(=O)[nH]1
-5% | CC(C)c1nnc(NC(=O)C2CC(=O)N(CCc3ccc(F)cc3)C2)s1 (configuration not stated)
13% | C/C(=N\N1CCN(C2c3ccccc3-c3ccccc32)CC1)c1cccnc1
-9% | COc1ccc(CNC(=O)Cc2csc(Nc3nc(=S)[nH]c4ccccc34)n2)cc1
-2% | Cc1nn(CC(=O)NCCCN2CCN(C)CC2)c(=O)c2cc(-c3ccccc3)nn12
-16% | COc1ccc(S(=O)(=O)N2CCOCC2)cc1NC(=O)c1cc(=O)[nH]c2ccccc12
-24% | CC(C)(C)N1C(=O)[C@H]2[C@@H](c3ccc(Br)cc3)N3C(=O)N(c4ccccc4)C(=O)[C@@]3(C)[C@H]2C1=O
17% | CC1CCC(NC(=O)c2ccc3c(c2)N(Cc2cccc(Cl)c2)C(=O)c2ccccc2S3(=O)=O)CC1 (configuration not stated)
5% | CCN1CCN(CCCNC(=O)c2ccc3nc(Cc4ccc(OC)cc4)oc3c2)CC1
5% | O=C(Cc1ccccc1)NCC(=O)OCC(=O)c1ccccc1Cl
2% | Cc1cc(NC(=O)CCS(=O)(=O)c2cc3c4c(c2)CCN4C(=O)CC3)ccc1Br
-4% | CCOc1ccc(-c2nonc2NC(=O)c2oc3cc(C)c(C)cc3c2C)cc1OCC
5% | COc1ccc(CCNC(=O)CCSCc2ccccc2Cl)cc1OC
-11% | CC(=O)N/C(=C\c1ccccc1)C(=O)OCC(=O)c1c(N)n(CC(C)C)c(=O)n(C)c1=O
-9% | CC(C)NC(=O)COc1ccccc1C#N
? | N#CC1=C(S)N(c2ccc(F)cc2)C(c2cccs2)NC1=O (configuration not stated)
18% | CC12CCC(=O)N1C(C(=O)N1CCN(S(=O)(=O)c3cccc(C(F)(F)F)c3)CC1)CS2 (configuration not stated)
-4% | Fc1c(F)c(F)c(N=Cc2ccc3ncccc3c2)c(F)c1F
-19% | CCC(C)Nc1nc(-c2ccc3c(c2)NC(=O)CO3)cs1 (configuration not stated)
-5% | O=C(NC1CCCC1)C(c1ccncc1)N(C(=O)Cn1nnc(-c2ccccc2F)n1)c1cccc(F)c1 (configuration not stated)
? | Cc1cc(C(=O)NNC(=O)Cc2ccc(Cl)c(Cl)c2)c(C)o1
20% | O=S(=O)(Nc1ccc(Br)cn1)c1ccc2ccccc2c1
-5% | O=C(CSc1oc(-c2ccco2)nc1S(=O)(=O)c1ccccc1)c1ccc(Cl)cc1
-2% | CCOc1ccc(/C=C(\C#N)C(=O)NC2CC2)c(OCC)c1
-4% | Cc1noc(N)c1C(=O)Nc1ccc(F)c(Cl)c1
17% | COc1ccc(CCNC(=O)CN2c3cccc4cccc(c34)S2(=O)=O)cc1OC
3% | CSc1cccc(NC(=S)NN(C)C)c1
-5% | CC[C@@H](C)[C@H](NC(=O)Cc1c(C)c2c(cc(C)c3c(C)c(C)oc32)oc1=O)C(=O)O
-11% | O=C(COC(=O)C1CC2C=CC1C2)Nc1c(Br)cc([N+](=O)[O-])cc1Br (configuration not stated)
-2% | O=S(=O)(Nc1cccc2ccccc12)N1CCCC1
-19% | Cc1cc(C(=O)NCc2cc(C(=O)O)oc2C)c(C)o1
9% | COc1ccc(N2CCN(C(=O)C3CCCN(C(=O)c4cc5sccc5n4C)C3)CC2)cc1 (configuration not stated)
-6% | Cc1ccc(NC(=O)CNCc2ccccc2)c(Br)c1
-13% | COc1ccc(N2CCN(Cc3csc(C)c3-c3ccc(C)cc3)CC2)cc1
8% | CCN(CC)C(=O)COc1coc(CN2CCN(c3cccc(Cl)c3)CC2)cc1=O
? | Cc1cc(C)c(C#N)c(SCc2[nH]nc3c2C(c2ccccc2)C(C#N)=C(N)O3)n1 (configuration not stated)
-11% | COc1cccc(COC(=O)C2CCN(C(=O)c3ccccc3C)CC2)c1OC
-21% | COc1ccc(OCC(O)CN2C(=O)c3ccccc3C2=O)cc1 (configuration not stated)
23% | COc1ccc(CCN(Cc2nc3ccccc3c(=O)[nH]2)C(=O)c2ccco2)cc1OC
2% | Cc1cccc(OCCCC(=O)Nc2ccccc2C(F)(F)F)c1
-9% | CC1CCCCN1Cc1ccc(N(C)C)cc1 (configuration not stated)
5% | Cc1ccccc1NC(=O)Cc1nc(COC(=O)c2cccc(C)c2O)cs1
4% | Cc1ccc(O)c(NC(=O)COCc2cc(-c3ccco3)on2)c1
-4% | CCN(c1ccc(OC)cc1)S(=O)(=O)N1CCCC(C(=O)NCc2ccccc2Br)C1 (configuration not stated)
-2% | O=C(CSc1nnc(-c2ccccc2Cl)o1)N1CCCCC1
11% | CN1CCN(C2=CC3=CC(=C(C#N)C#N)CCC3CC2)CC1 (configuration not stated)
-10% | O=C(O)CCSc1nnc(COc2ccc(Cl)cc2)n1-c1ccccc1

(next part)
VDR inh | canonical_smiles
-14% | CCN(CCCNC(=O)c1cc2c(=O)n(CC)c3ccccc3c2s1)Cc1ccccc1
5% | Nc1ccc(C(=O)N/N=C\c2cc(N=Nc3cccc4ccccc34)ccc2O)cc1
6% | O=C(c1ccc(Cl)cc1)N1CCC(c2nc(-c3cccs3)no2)CC1
9% | Cc1nc(N)sc1C(=O)N/N=C/c1cccnc1
45µM* | CCCc1c(OCCCCc2nn[nH]n2)ccc(C(C)=O)c1O
7% | COc1ccccc1CNC(=O)c1c(-c2ccccc2Cl)noc1C
5% | O=c1cc(-c2ccccc2)c2ccc3c(c2o1)CN(Cc1ccccc1)CO3
-2% | COC(=O)C1=C(C)N(c2ccc(Cl)cc2)/C(=C/c2ccc(O)cc2)C1=O
-1% | O=C(O)c1ccc(-n2nnnc2Oc2cccc3cccnc23)cc1
4% | CCOP(=O)(OCC)C(Nc1cccc([N+](=O)[O-])c1)c1ccc(N(C)C)cc1 (configuration not stated)
-4% | S=c1[nH]nc(C2CCCCC2)n1/N=C/c1ccccc1Cl
5% | Cc1ccccc1Nc1ncc(C#N)c(N)n1
-16% | COc1ccc(N(CC(=O)NCc2cccnc2)S(=O)(=O)c2ccccc2)c(OC)c1
-8% | O=C(Nc1cccc(OC(=O)c2ccc(Br)o2)c1)c1ccccc1
-3% | COC(=O)c1ccc(COC(=O)c2cccnc2Cl)cc1
18% | CN(CC(=O)Nc1ccccc1N1CCOCC1)S(=O)(=O)c1ccc(Cl)cc1
-6% | CCNc1ncc2nc(CCc3ccccc3)c(=O)n(C3CC3)c2n1
-2% | CCOC(=O)c1c(C)c(C(=O)NCc2cccs2)c(C)n1CC
-14% | CCC(C(=O)N1CCN(Cc2ccc3c(c2)OCO3)CC1)n1c(=O)[nH]c2ccccc2c1=O (configuration not stated)
-12% | Cc1ccccc1OC1=NS(=O)(=O)c2ccccc21
13% | COc1ccc(-c2nc(CSc3nnc(C)n4c3cc3oc(C)cc34)c(C)o2)cc1OC
-12% | COc1ccc(NC(=S)N(CCCN2CCCC2)Cc2ccco2)cc1
0% | Cc1nn(C)cc1CNC(=O)c1cccc(Cl)c1
4% | O=C(NCc1n[nH]c(=S)n1-c1ccc(Cl)c(Cl)c1)c1ccc(S(=O)(=O)N2CCOCC2)cc1
6% | CCCCC(C)n1[nH]c(=O)cc1N (configuration not stated)
-25% | O=S(=O)(c1ccccc1)N1CCC2(CC1)OCCO2
-11% | CCOc1ccccc1N1CCN(C(=O)c2cc(C)oc2C)CC1
-14% | Cc1cccc(NC(=O)c2ccccc2SCc2ccc(F)cc2)n1
-4% | CCOc1ccc(NC(=O)CSc2nc(=O)[nH]c3c2CCC3)cc1
-12% | Cc1ccccc1NC(=O)C(NC1CCCCC1)C(C)C (configuration not stated)
4% | COCCNC(=O)CN1C(=O)COc2ccc(S(=O)(=O)N3CC(C)CC(C)C3)cc21 (configuration not stated)
3% | CC(Sc1nncs1)C(=O)NCc1ccc2c(c1)OCO2 (configuration not stated)
4%&9% | COc1cccc(-n2c(=O)c3c(C)c(C(=O)N(C)C)sc3n(CC(=O)NCCc3ccc(OC)c(OC)c3)c2=O)c1

Some of the compounds tested; the hit share may differ from the screen's.
